Screens from PubChem BioAssay.
Biofilm kill mix = clotrimazole potentiators killing C. albicans biofilm, primary screen, 4-compound mixtures; C. albicans biofilm persisters + clotrimazole, fluorescence viability; primary screen in compound mixtures of four per well; inhibition, % at 7.6 µM; actives 0.02% (n = 120,000);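 active means inhibition above 30.3% in the primary screen of four-compound pools, then above 30% when the compound was retested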;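 further: compounds exposed to preformed 24 h biofilms for 48 h; the number belongs to the whole pool; some results filed as inactive read as strong as hits; inactives centre near 12; 0% = biofilm with clotrimazole alone and 100% = kill control; retested singly at about 60 µM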
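System: C. albicans CAF4-2 wild-type biofilms; Medium: RPMI/MOPS medium, pH 7.0; Reagent: Clotrimazole, 50 µg/mL; Times: biofilm formation 24 h, compound exposure 48 h, 37 °C; Detection: 2-h Alamar Blue fluorescence, 535/590 nm excitation/emission; Evaluation: percent inhibition of biofilm viability.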
Starred values were filed as active, the others as inactive.

mol	Biofilm kill mix
NCC[C@H](O)C(=O)N[C@@H]1C[C@H](N)[C@@H](O[C@H]2O[C@H](CN)[C@@H](O)[C@H](O)[C@H]2O)[C@H](O)[C@H]1O[C@H]1O[C@H](CO)[C@@H](O)[C@H](N)[C@H]1O	7.1
O=C1CC(N2CCN(c3ccccn3)CC2)C(=O)N1c1ccc(F)cc1 (stereo not drawn)	11.4
COc1cc(/C=C2\C(=O)ON=C2c2ccccc2)cc(Cl)c1O	13.2
Cc1cc(C)nc(SCC(=O)NN=C2CCCC2)n1	25.7
COc1ccc(OC)c(NC(=S)N2CCN(Cc3ccccc3)CC2)c1	16.5
CN(C)CCNC(=O)c1c(CSc2ccccc2)noc1C(=O)NCc1ccccc1	8.1
COc1c(/C=N/NC(=O)c2ccccc2O)c(CCN(C)C(C)=O)cc2c1OCO2	6.5
Cc1cc(NC(=O)c2cccs2)ccc1NC(=O)Cc1ccccc1	7.4
CC(C)n1c(C(F)(F)F)nc2cc(C(=O)N3CCCCC3)ccc21	23.5
CCC1CCCCN1C(=O)c1ccccc1OC1CCN(S(C)(=O)=O)CC1 (stereo not drawn)	-11.8
O=C(O)/C(=C\c1ccco1)NC(=O)c1ccccc1	10.3
CC(C)C1Oc2cc3oc(=O)ccc3cc2C1=O (stereo not drawn)	-1.9
CC(/C=C1\SC(=S)N(CCCC(=O)Nc2ccc(C(=O)O)c(O)c2)C1=O)=C\c1ccccc1	0.1
O=C(NC1CC1)C1CCCN(C(=O)Nc2ccc(F)cc2)C1 (stereo not drawn)	0.2
Cc1cc(NC(=O)CCCC(=O)N(c2ccccc2)C(C(=O)NC2CCCCC2)c2cccs2)no1 (stereo not drawn)	-1.4
O=C(c1sc2cccc(F)c2c1Cl)N1CCN(c2ncccn2)CC1	-1.9
O=Cc1cc(N=Nc2cccc(C(=O)O)c2)ccc1O	-6.5
CC(N=Cc1c(O)c2ccccc2oc1=O)C(=O)O (stereo not drawn)	19.6
O=C(OC1CCOC1=O)c1cccc(S(=O)(=O)Nc2ccc(F)cc2)c1 (stereo not drawn)	6.5
COc1ccc(NC(=O)c2ccc(NCC3CCCO3)c([N+](=O)[O-])c2)cc1 (stereo not drawn)	12.3
CSc1ccc(-c2nc(O)c3cnccn23)cc1	8.0
COC(=O)c1ccc(COC(=O)CNC(=O)CNC(=O)c2ccc(C)cc2)cc1	12.3
CCCNc1nc(N2CCCC2)nc(N2CCCC2)n1	18.0
CCn1c(SCC(=O)Nc2ccc(OC)cc2OC)nc2nc3c(cc2c1=O)COC(C)(C)C3	17.4
COc1ccc(C(=O)COC(=O)c2ccccc2NS(=O)(=O)c2ccc(O)c([N+](=O)[O-])c2)cc1	35.7
CC(/C=C1\SC(=O)N(CC(=O)Nc2ccc(O)cc2)C1=O)=C\c1ccccc1	17.7
CCOCCCNC(=O)/C(C#N)=C/c1ccc(C(=O)OC)cc1	-7.2
CCN(CC)CCn1cnc2c1c(=O)n(CCOC(=O)c1cc(OC)c(OC)c(OC)c1)c(=O)n2C	15.6
NC(=O)NC1NC(=O)NC1=O (stereo not drawn)	9.8
Cc1ccc(NC(=O)COC(=O)c2ccc3c(c2)OCO3)c(C)c1	37.5

(list continues)
mol	Biofilm kill mix
C=CCOc1ccc(C2=NO[C@@H]3[C@@H]4C[C@@H]([C@H]5C(=O)N(C)C(=O)[C@@H]45)[C@H]23)cc1	31.8
CCN(CC(=O)NCc1ccc(F)cc1)C(=O)COc1ccc(C)c(C)c1	11.7
Cc1cnc(CN2CCc3c([nH]c4ccccc34)C2C2CCCCC2)[nH]1 (stereo not drawn)	15.8
COc1ccccc1N(C)S(=O)(=O)c1ccc(C(=O)OCC(=O)c2c[nH]c3ccccc23)cc1	10.3
COc1ccc(C2c3[nH]c4ccccc4c3CCN2C(=O)c2cc3ncccn3n2)c(F)c1 (stereo not drawn)	17.0
CCOP(=O)(OCC)C(Nc1cc(Cl)cc(Cl)c1)c1cccc(O)c1 (stereo not drawn)	11.8
CCC(=O)NNc1nc2c(C)c(C)ccc2s1	23.5
CC1=CC(=Nc2c(C)n(C)n(-c3ccccc3)c2=O)C=CC1=O	22.4
CC1(C)NC(=O)N(CC(=O)OCC(=O)Nc2cc(S(=O)(=O)N3CCCCCC3)ccc2Cl)C1=O	14.4
O=C1CN(C(=O)COc2ccc(F)cc2Cl)c2ccccc2N1	16.2
Cn1nc(-c2ccccn2)nc2c(=O)n(C)c(=O)nc1-2	12.8
Cc1nn(Cc2ccccc2)c(C)c1NC(=O)CCCn1nc([N+](=O)[O-])c(Cl)c1C	-10.9
CCOP(=O)(c1ccc(N(C)C)cc1)C(O)c1ccncc1 (stereo not drawn)	13.6
CCN(CC)C(=N)/C(C#N)=N/Nc1ccccc1	13.9
Cc1ccc(NC(=O)Nc2cccc(Cl)c2)c(C(=O)O)c1	-4.3
COc1ccccc1N1CCN(C(=O)C2CCN(S(=O)(=O)c3ccc(F)cc3)CC2)CC1	14.4
Cc1oc(=O)c(NC(=O)c2ccccc2)cc1C(N)=O	-6.9
COc1ccc(NC2CS(=O)(=O)CC2NCc2ccccc2)cc1 (stereo not drawn)	14.8
CN(C)S(=O)(=O)c1ccc(Cl)c(NC(=O)CN2CCN(Cc3ccc4c(c3)OCO4)CC2)c1	17.8
Nc1ccc(Nc2nc(-c3cc4ccccc4oc3=O)cs2)cc1	12.2
CCCSC(=S)c1c(C)[nH]n(-c2ccccc2)c1=O	13.1
O=C(NN=C1CCC(=NNC(=O)c2ccccn2)CC1)c1ccccn1	13.9
CC(=O)Nc1cc(C)c2nc(NC(C)=O)sc2c1	14.4
Brc1cc2c(cc1/C=N/Nc1nc(N3CCCCC3)nc(N3CCCCC3)n1)OCO2	12.8
Cc1ccc(S(=O)(=O)N2CCC(=O)N(C(COCc3ccc(C(F)(F)F)cc3)C(C)C)CC2)cc1 (stereo not drawn)	15.1
N/C(=N\OC(=O)Cc1ccccc1)c1ccncc1	8.7
COc1ccc(-n2c3c(cc(C#N)c2=O)C(=O)CCC3)cc1	11.6
CCNc1nc(NCC)nc(N/N=C/c2ccc(O)c(OC)c2)n1	9.4
COc1ccc(COC(=O)N/N=C(\C)CC(=O)Nc2ccc(Cl)cc2)cc1	10.8
CCn1c(SCC(=O)N(C)C2CCS(=O)(=O)C2)nnc1-c1ccccc1 (stereo not drawn)	4.4

Next part
mol	Biofilm kill mix
CCCOCC(O)CC(Cc1ccccc1)C(=O)NN (stereo not drawn)	24.5
Cc1cc(NC(=S)N(Cc2cccc(Br)c2)CC2CCC(C(=O)O)CC2)ccc1Cl (stereo not drawn)	9.2
Cc1ccc(Cc2cnc(N3C(=N)SC(c4ccccc4)C3=O)s2)cc1 (stereo not drawn)	14.7
O=C(Cc1ccccc1)Nn1c(-c2ccccc2)nc2ccccc2c1=O	6.3
COc1ccc(/C=C/C=C2\NC(=S)NC2=O)cc1	9.6
Cc1ccsc1/C=N/NC(=O)C1CC(=O)N(c2ccccc2)C1 (stereo not drawn)	3.8
O=C1Nc2ccccc2C(=O)N2CCCCC12 (stereo not drawn)	27.1
CSc1ccccc1NC(=O)CN(C)C(=O)c1cccc(S(=O)(=O)N(C)C)c1	-8.5
CCOC(=O)/C(C#N)=C\c1cn(C)c2ccccc12	13.9
Cc1ccc(NS(=O)(=O)c2ccc3[nH]c(=O)sc3c2)cc1	35.6
C=CCn1c(SCC(=O)Nc2nnc(CC)s2)nnc1-c1ccncc1	1.1
Cc1cccc(CC2SC(N)=NC2=O)c1 (stereo not drawn)	16.5
Cc1nn(C)cc1CN(C)C(=O)c1cc(COc2ccc(F)cc2F)on1	3.2
COC1=CC(=O)CC(C)C12Oc1cc(OC)cc(OC)c1C2=O (stereo not drawn)	24.0
NS(=O)(=O)c1ccc(N/C=C/C(=O)c2ccc(Br)cc2)cc1	-0.4
Cn1cc(C(=O)CCl)c2ccccc21	18.3
COc1ccc(/C=N/N=C2/CC(C)(C)Cc3n[nH]c(=O)cc32)cc1	6.5
CCCN(CCC)c1cc(Cl)nc(N)n1	17.0
CC(=O)Nc1cccc(/C(C)=N/NS(=O)(=O)c2ccc(C)cc2)c1	20.5
CC(=O)c1sc(NC(=O)c2cc(-c3ccccc3)nn2-c2ccccc2)nc1C	-13.8
CCOc1ccc2nc(SCC(=O)NC(=O)C(C)C)sc2c1	-1.6
CCN(Cc1ccncc1)C(=S)Nc1c(C)cccc1C	16.6
CN1C=CC=C/C1=C1/N=C(c2ccccc2)OC1=O	17.7
COc1ccc(S(=O)(=O)Nc2nnc(CC(C)(C)C)s2)cc1	-6.8
COc1ccc(/C=N/Nc2cc(N3CCCC3)nc(N3CCCC3)n2)cc1	-1.2
CCCN1CCN(C(=S)Nc2ccc(SC(F)F)cc2)CC1	8.8
Cc1cccc(C(=O)NNS(=O)(=O)c2ccccc2)c1O	3.4
CCOC(=O)c1c(NC(=O)Cn2cnc3scc(-c4ccc(C)cc4)c3c2=O)sc(C)c1C	15.7
Cn1c(=O)c2c(nc(NCCO)n2CCc2ccccc2)n(C)c1=O	2.0
O=C(O)/C=C/c1cnc2ccccc2c1	3.1

Quoted at random: 2 entries already listed, in no set order.
mol	Biofilm kill mix
Cc1cc(NC(=S)N(Cc2cccc(Br)c2)CC2CCC(C(=O)O)CC2)ccc1Cl (stereo not drawn)	9.2
O=Cc1cc(N=Nc2cccc(C(=O)O)c2)ccc1O	-6.5

Further records follow.
mol	Biofilm kill mix
CCc1nnc(NC(=O)COc2ccc([N+](=O)[O-])cc2)s1	14.0
Fc1ccc(-n2cc(CNCCc3ccccn3)c(-c3ccccc3Cl)n2)cc1	7.1
O=C(NC1CC1)c1cc(-c2ccco2)nc2ccccc12	-2.4
Cc1ccc(-c2csc3nc(-c4ccncc4)[nH]c(=O)c23)cc1	15.0
CC1CCc2c(sc(NC(=O)COC(=O)c3ccc(O)cc3)c2C#N)C1 (stereo not drawn)	14.1
COCCNC(=O)CNC(=S)N(CCCN1CCOCC1)Cc1cccs1	-0.9
CCn1c(CCCOc2ccc(Cl)cc2Cl)n[nH]c1=S	22.7
COC(=O)c1ccc(COC(=O)Cc2n[nH]c(=O)c3ccccc23)cc1	-5.3
Cc1nc2ncnn2c(N2CCN(C(=O)c3cccc(F)c3)CC2)c1C	15.3
CCC(=O)c1ccc2c(c1)OCCO2	23.2
Cc1ccc(S(=O)(=O)N2CCC(C)CC2)cc1[N+](=O)[O-]	8.6
NS(=O)(=O)c1ccc(NN=C2CCCCC2)c([N+](=O)[O-])c1	6.7
CCOc1cc(N2CCOCC2)c(OCC)cc1NC(=O)COC(=O)c1ccccc1C	-6.4
Cn1cnc(S(=O)(=O)NCc2ccccc2)c1	17.6
COC(=O)c1sc(N2C(=O)C(=O)/C(=C(/O)c3ccc(C)cc3)C2c2ccco2)nc1C (stereo not drawn)	13.7
Cc1ccc(C(=O)NC(=S)NNC(=O)CCN2CCOCC2)cc1	12.6
CC(=O)N1c2ccccc2C(C)(C)C2CCC(C)CC21 (stereo not drawn)	18.6
CCC1=Nc2cc(C(=O)NCc3cccnc3)ccc2Sc2ccc(C)cc21	18.3
COc1ccc(Cc2noc(-c3ccc([N+](=O)[O-])cc3)n2)cc1OC	1.6
CCN1CCN(CCOCCOc2ccccc2-c2ccccc2)CC1	6.0
C#CCOCCOCCOCCNc1nc(N2CCN(C(=O)C([C@@H](C)CC)n3cc(C(N)Cc4ccc(O)cc4)nn3)CC2)nc(N2CCN(C(=O)[C@H](CCC(=O)O)n3cc(C(N)CO)nn3)CC2)n1 (stereo partly drawn)	14.1
Cc1nc(N2CCN(Cc3ccc4c(c3)OCO4)CC2)c2cc(-c3ccccc3)sc2n1	14.8
O=C1N(c2ccccc2)C[C@@H]2C[C@@H](c3cccc4c3OCO4)N3CCC[C@@]123	7.8
Cc1nc(N)sc1C(=O)N/N=C/c1ccccc1[N+](=O)[O-]	5.7
Cc1nn(CCCC(=O)Nc2cnn(Cc3ccc(F)cc3)c2)c(C)c1[N+](=O)[O-]	24.1
CCN1C(=O)C(CC(=O)Nc2ccc(C)cc2C)Nc2cc(S(=O)(=O)N(C)C)ccc21 (stereo not drawn)	0.9
Cc1cccn2c(=O)c(C=O)c(N3CCCCC3)nc12	14.5
COc1cccc(C2N(c3ccccc3)CCN2c2ccccc2)c1OC	4.0
CCCCOC(=O)C(C)Sc1n[nH]c(=O)[nH]c1=O (stereo not drawn)	6.7
CC(NC(=O)COC(=O)c1ccc([N+](=O)[O-])s1)c1ccccc1 (stereo not drawn)	10.8

(further entries)
mol	Biofilm kill mix
CC(=O)N1CCN(C(=S)c2cccc([N+](=O)[O-])c2)CC1	17.9
CCOC(=S)N/C(=N\S(C)(=O)=O)c1ccccc1	17.0
Cc1cc(-c2cc(-c3ccccc3)on2)nc(NCC2CC2)n1	13.0
CC[C@@H](C)[C@H](NC(=O)OCc1ccccc1)c1nnc([C@@H](NC(=O)OCc2ccccc2)[C@@H](C)CC)o1	22.3
S=C(c1cn(Cc2ccccc2)c2ccccc12)N1CCOCC1	16.2
O=S(=O)(NC1CC1)c1ccc(S(=O)(=O)N2CCC3(CC2)OCCO3)cc1	24.6
Cc1cc2cc(C#N)c(NCCNC(=S)NCCCN3CCOCC3)nc2cc1C	1.1
COc1c2c(nc3occc13)C(CC=C(C)C)(OC)C(O)CC2 (stereo not drawn)	15.3

This is a subset, so the mix of outcomes need not match the whole.
